# Assay outcomes deposited in PubChem BioAssay by National Center for Advancing Translational Sciences (NCATS).
# PK Bst – Pyruvate Kinase | AID 361, 2006 | Potency, µM | 1.2% of 51,000 active | partly purified Bacillus stearothermophilus pyruvate kinase, luminescence ATP production; ribose 5-phosphate activator present at AC10; in the data active means potency below about 11 µM; inconclusive means mostly about 12 µM to 25 µM; inactive means weaker than that;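 the screen sought inhibitors and activators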;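 note: potency is the fitted concentration of half-maximal effect; scaled between full activation by ribose 5 phosphate and full inhibition by luteolin; about four in five hits inhibit and the cells do not say which; series up to 57 µM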
# YjeE inh – qHTS Assay for Inhibitors of YjeE. 0.05% of 71,000 active. AID 605, 2007. Potency, µM. tRNA threonylcarbamoyladenosine biosynthesis protein TsaE (Escherichia coli (strain …. purified YjeE, fluorescence polarisation of a bound ADP probe; active = well fitted falling curve; inconclusive = weaker or top-dose-only fall, or a rising curve; inactive = flat or poorly fitted curve;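 note: top concentration of the series not given in the record; excess ADP was the control for the full effect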
#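 Purified YjeE (10 uM) with BODIPY Texas Red-labeled ADP probe (2 uM); compounds pin-transferred, 15 min at room temperature. Binding inhibition read as decreased fluorescence polarization; ADP titration as control.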
# * = called active by the depositor; i = inactive; u = inconclusive; x = not tested or not shown. The list is partial (hit frequency here may not be typical).
SMILES,PK Bst,YjeE inh
CC(C)c1nc2oc3c(=O)[nH]cnc3c2c2c1CCC2,>57,i
CNC(=O)c1cc(S(=O)(=O)N(C)C)ccc1Cl,>57,i
NCCSc1nc(-c2ccccc2)c(-c2ccccc2)o1,x,i
O=C(O)C1CCCCC1C(=O)NCCc1c[nH]c2ccccc12 (centres undefined),>57,i
CC(C)CCOc1cccc(OCC(=O)N(C)C2CCS(=O)(=O)C2)c1 (centres undefined),>57,i
CC(=O)Nc1cc(NC(=O)CCCC(=O)O)ccc1Cl,x,i
Cc1cc(N(C)C)cc(C)[n+]1[O-],x,i
COC(=O)c1c(NC(=O)CSc2nnnn2-c2ccc3c(c2)OCO3)sc(C)c1C,>57,i
CC(NC(=O)c1ccco1)C(=O)OCc1cccc(Cl)c1 (centres undefined),>57,i
CCN(CCNS(=O)(=O)c1ccc2c(c1)oc(=O)n2C)c1ccccc1,x,i
O=c1cc(-c2ccccc2)nc2nc(CCc3ccccc3)[nH]n12,>57,i
NCC(=O)[C@@H](O)[C@H](O)[C@H](O)CO,x,i
COn1c(SCC(=O)N(C)C)nc2ccccc2c1=O,>57,i
COC(=O)[C@@]1(Cc2ccccc2)[C@H]2c3cc(C(=O)N(C)C)n(Cc4cc(F)c(F)c(F)c4)c3C[C@H]2CN1C(=O)c1ccccc1,x,i
CCN(CC)CCCC1(CN)OCCc2ccccc21 (centres undefined),>26,x
CN(C)CCN(Cc1ccccc1)S(=O)(=O)c1cccc2cccnc12,x,i
COCCn1c(C)cc(C(=O)CSc2n[nH]c(N)n2)c1C,>57,i
N#Cc1ccc(CN2CCCC3(CCN(C(=O)c4cc(C(F)(F)F)cc(C(F)(F)F)c4)CC3)C2)cc1,x,i
CC(=O)c1ccc(N2CCN(C(=O)C3(S(=O)(=O)c4ccc(Cl)cc4)CC3)CC2)cc1,>57,i
Cc1ccc(S(=O)(=O)Nc2ccc3c(c2)ncn3C(C)(C)C)cc1,x,i
CCn1nnnc1SCC(=O)c1cc(OC)ccc1OC,>57,i
CC(C)NC(=O)C1CCN(C(=O)c2cc3sccc3n2Cc2ccc(F)cc2)CC1,>57,i
COc1cccc(Cn2c(=O)c(C)nc3cnc(N4CCNCC4)nc32)c1,x,i
CC(C)(C)c1nnc2sc(SCC(=O)c3ccccc3)nn2c1=O,>26,x
CCOC(=O)c1ccc(NC(=O)C2CC2)cc1,>57,i
c1ccc(-c2ccccn2)nc1,x,i
CCC(=O)N(Cc1cc2cc(OC)ccc2[nH]c1=O)c1ccccc1C,>57,i
Cc1csc2nc(CNC(=O)c3cccc(C(F)(F)F)c3)cn12,>57,i
c1cn(CCCNc2ncnc3sc4c(c23)CCC4)cn1,x,i
CCN(c1ccccc1)c1cc(C)nc2ncnn12,x,i
O=C(c1ccc(S(=O)(=O)N2CCCCCC2)cc1)N1CCN(c2ccccn2)CC1,>57,i
COCCN1Cc2cccc(C(=O)Nc3cccc(C)c3C)c2C1=O,>57,i
COc1ccc(Cc2nnc(SCC(=O)c3ccccc3)o2)cc1,>57,i
C=C(C)Cc1c(C)nc(-c2ccccc2)[nH]c1=O,x,i
COc1ccc(C(=O)OCCNC(=O)c2c(Cl)nc3ccccn23)cc1,>57,i
NC(=O)c1ccc(NS(=O)(=O)c2ccccc2F)cc1,>57,i
COCC(C)n1c(C)cc(C(=O)COC(=O)c2ccc(N3CCCC3=O)cc2)c1C (centres undefined),>57,i
CCOC(=O)c1c(C)n(C)c2ccc(O)c(CN3CCN(C)CC3)c12,>57,i
CC1CCCCN1C(=O)CSc1nnc(-c2cccnc2)n1C1CCCCC1 (centres undefined),>57,i
O=S(=O)(c1ccccc1)N1CCC2(CC1)CN(c1ncccn1)C2,x,i
C[C@@H](SCc1ccccc1)C(=O)O,x,i
COC(=O)c1cc(=O)n(Cc2ccc3c(c2)OCO3)c(=Nc2ccccc2)s1,x,i
COc1ccc(C(C)(C)C)cc1NC(=O)c1ccoc1C,>57,i
Cc1ccc(-n2ncc3c2ncn2nc(-c4ccco4)nc32)c(C)c1,>57,i
Cc1nc2ncnn2c(N2CCC(C(=O)NC3CCCC3)CC2)c1Cc1ccccc1,>57,i
CCOC(=O)CSc1nnc(Cn2nnc(-c3ccccc3)n2)n1CC,>57,i
Cn1nc(C(=O)N2CCOCC2)c2ccccc2c1=O,>57,i
CCC(=O)NC1=C(C#N)C2(CCCC2)Cc2ccccc21,>57,i
CCc1cc(C(=O)Cc2ccc(F)cc2)c(O)cc1O,x,i
COc1ccc(-c2nnc(SC)n2C)cc1,>57,i
COc1cc(C2NC(=O)NC(O)(C(F)(F)F)C2C(C)=O)cc(OC)c1OC (centres undefined),>57,i
CCOc1nc(C)ccc1-c1noc(C)n1,>57,i
CC1CCN(c2nc3ccccc3nc2C(C#N)C(=O)NC2CCCCC2)CC1 (centres undefined),>57,i
O=C(NCc1cccnc1)c1cc(S(=O)(=O)N2CCCCC2)ccc1Cl,>57,i
COc1ccccc1CNc1ncnc2nc[nH]c12,x,i
O=C(NCCc1ccncc1)Nc1ccccc1Cl,>57,i
O=C1Nc2ccc(NS(=O)(=O)c3cccs3)c3cccc1c23,x,i
Cc1nnc(SCC(=O)Nc2ccc(Oc3ccccc3)cc2)n1N,>57,i
CN1CCN(CC(=O)n2c3c(c4ccccc42)CCCC3)CC1,>11,i
O=C(Nc1ccccc1C(F)(F)F)c1cc(-c2ccccc2O)on1,>57,i
# (listing goes on)
SMILES,PK Bst,YjeE inh
COc1ccc(OC)c(C(C)NC=O)c1 (centres undefined),x,i
COc1ccc(S(=O)(=O)N2CCCC(C(=O)N3CCN(C)CC3)C2)cc1C (centres undefined),>57,i
COCCn1c(=O)c(-c2ccc(Cl)cc2)nc2cnc(Nc3ccccc3)nc21,x,i
O=C(O)c1ccc(C(=O)O)c(C(=O)O)c1.[NH-][C@@H]1CCCC[C@@H]1[NH-].[Pt],x,i
O=S(=O)(NCCc1ccccc1)c1ccc(S(=O)(=O)N2CCCCC2)cc1,>57,i
Nc1c(C(=O)NCCN2CCOCC2)c2nc3ccccc3nc2n1-c1ccccc1,>57,i
COc1ccccc1NC(=O)C(Cc1ccc(Cl)cc1)c1nn[nH]n1 (centres undefined),>57,i
O=C(Cn1c(NCCO)nc2ccccc21)c1cccs1,>57,i
O=C(CSc1nc(C2CC2)nc2sc3c(c12)CCCC3)NCc1ccco1,>57,i
CCCc1cc(=O)[nH]c(SCC(=O)Nc2cc3c(cc2C(C)=O)OCO3)n1,>57,i
CCCCCNC(=O)C(C#N)c1nc2ccccc2nc1N1CCCC1 (centres undefined),>57,i
COc1ccc2nc(N3CCCC(C(=O)NCCCN4CCN(C)CC4)C3)sc2c1 (centres undefined),i,i
C=CCn1c(SCc2ccc(OC)cc2)nnc1-c1cccnc1,>57,i
Cc1cc(NC(=O)CCC(=O)N(CCC(C)C)CC(=O)NCC2CCCO2)no1 (centres undefined),>57,i
O=C(Oc1ccccc1)c1ccc(-n2cnnn2)cc1,>57,i
O=C(CCN1CCCCC1c1cccnc1)NCc1ccccc1 (centres undefined),>57,i
CCn1cc(C(=O)NCc2ccco2)c(=O)c2cc(S(=O)(=O)N3CCc4ccccc4C3)ccc21,>57,i
Cc1ccc(-n2ncc3c(NCCCOC(C)C)ncnc32)c(C)c1,>11,x
CC(=O)Nc1ccc2nc(C3CCCCC3)[nH]c2c1,>57,i
CC1(C)C(c2ccccn2)=[N+]([O-])C(C)(C)N1O,x,i
Cc1ccc(/C=c2/sc3nnc(-c4ccccc4Cl)n3c2=O)o1,x,i
CN(C)c1ccnc2sc3c(=O)n(Cc4ccccc4)cnc3c12,>57,i
CCOC(=O)c1cc2c(=O)n3ccccc3nc2n(Cc2ccco2)c1=NC(=O)c1cccnc1,>57,i
COc1ccc(CN2CCN(C(=O)CC(C)C)CC2)c(OC)c1OC,x,i
Cc1cc(N2CC34C=CC(O3)C(C(=O)O)C4C2=O)no1 (centres undefined),>57,i
COc1cccc(OC)c1C(=O)N1CCN(S(=O)(=O)c2ccccc2)CC1,>57,i
Cc1nc2ccc(NC(=O)N3CCC(c4ccccc4)C3)cc2nc1C (centres undefined),>57,i
CCOC(=O)c1c(CN2CCN(c3ccccc3)CC2)oc2ccc(O)cc12,x,i
CC(=O)NC(=O)Nc1sc(=S)n(C)c1C,>26,x
COc1ccccc1NC(C)=O,x,i
COc1ccc(C(C)(C)C)cc1NC(=O)c1c(C)noc1C,>57,i
O=C(CCCN1C(=O)c2ccccc2C1=O)Nc1sc2c(c1C(=O)NCc1ccco1)CCC2,>57,i
O=C(CCCCCn1c(SCc2ccncc2)nc2ccccc2c1=O)NCc1ccco1,>57,i
Cc1nn(-c2nc3ccccc3s2)c(C)c1Oc1ccccc1O,x,i
O=C(NCc1ccc2c(c1)OCO2)c1cc(-n2cnnc2)ccc1Cl,>57,i
Nc1nc(SCC(=O)Nc2ccc(Br)cc2F)n[nH]1,>57,i
Cc1nn2c(-c3ccc(Cl)cc3)nnc2s1,u,x
CCOC(=O)C1C2C=CC3(CN(C4CCCC4)C(=O)C13)O2 (centres undefined),>57,i
CCOC(=O)Cc1nnc(NC(=O)Nc2ccccc2)s1,>57,i
Cc1cc2ncn(S(=O)(=O)N3CCOCC3)c2cc1C,>57,i
CCCOc1ccc(Cl)cc1CN1CCOCC1,>26,x
CCCN1C(=O)C(NC(C)=O)c2cc(OC)ccc21 (centres undefined),>57,i
Cc1c(N=Cc2ccc(-c3ccc(Cl)cc3)o2)c(=O)n(-c2ccccc2)n1C,>11,i
COC(=O)COc1ccc(Oc2nc(SC)nc(N(C)C)n2)nn1,>26,x
O=C(Cn1cnc2c(nnn2Cc2ccc(F)cc2)c1=O)OCc1ccccc1,>57,i
CC(C)c1ccc(OCC(=O)NCc2ccco2)cc1,>57,i
Cc1cccc(-n2nnc(C(=O)NC3CCCc4ccccc43)c2N)c1 (centres undefined),u,i
C[C@@H]1CC2(OC3C[C@@]4(C)C5=CC[C@H]6C(C)(C)C(O[C@@H]7OC[C@@H](O)[C@H](O)[C@H]7O)CC[C@@]67C[C@@]57CC[C@]4(C)C31)OC(O)C1(C)OC21 (some centres undefined),x,i
CCOC(=O)c1ccc(Oc2c(C)oc3c(CN4CCN(C)CC4)c(O)ccc3c2=O)cc1,>57,i
c1csc(-c2nnc3ccccn23)c1,7*,i
CCn1c(SCC(=O)Nc2nonc2C)nnc1-c1ccco1,>57,i
O=C(CSc1nc(O)cc(=O)[nH]1)Nc1ccc2c(c1)CCC2,>57,i
COC(=O)CCc1nc2ccccc2[nH]c1=O,x,i
Clc1ccccc1Cn1nnc2c(N3CCCC3)ncnc21,>57,i
Cc1cc(C(=O)NCCN2CCCCC2C)n(-c2ccccc2)n1 (centres undefined),x,i
N#CCc1nnc2n1-c1ccccc1CCC2,x,i
Cc1cccc2cc(CN(Cc3ccco3)C(=O)N3CCCC3)c(=O)[nH]c12,>57,i
COc1ccc(CN2C(=O)CN=C2Nc2cccc(C)c2C)cc1,>57,i
COc1cccc(C2CC(c3ccccc3)Nc3ncnn32)c1 (centres undefined),>57,i
O=c1[nH]cnc2sc3c(c12)CCCC3,x,i
# Following part
SMILES,PK Bst,YjeE inh
CN(CC(=O)Nc1ccc2c(c1)OCCO2)S(=O)(=O)c1ccc(Br)s1,>57,i
N#Cc1c(NCCN)nc(NCc2ccccc2)c2c1CCN(Cc1ccccc1)C2,>26,x
CC#CCCC(=O)N1C=Cc2ccccc2C1C#N (centres undefined),>57,i
Nc1nc(SCc2ccc([N+](=O)[O-])cc2)c2ncn([C@@H]3O[C@@H](CO)[C@@H](O)[C@H]3O)c2n1,x,i
Cc1nn(S(=O)(=O)N2CCCCC2)c(C)c1Br,i,i
NC(N)=N[C@@H]1C(O)[C@H](N=C(N)N)[C@@H](O)C(O)[C@H]1O (some centres undefined),x,i
O=C(C1=C(O)C(=O)N(Cc2ccco2)C1c1cccnc1)c1cc2ccccc2o1 (centres undefined),>57,i
Cc1ccc(S(=O)(=O)NC2CCCC(C(=O)O)C2)cc1 (centres undefined),>57,i
CNC(=O)c1cc2c(ccc3ccccc32)oc1=N,i,x
O=C(CSc1nc(NS(=O)(=O)c2ccccc2)cc(=O)[nH]1)Nc1ccc(F)cc1,>57,i
C[N+](C)(C)c1ncnc2c1ncn2[C@@H]1C[C@H](O)[C@@H](CO)O1,x,i
Cn1c(NCc2cccs2)nc2ccccc21,>57,i
